Autofluor counter: compound fluorescence in toxin protease inhibitor counterscreen. compound autofluorescence counterscreen, microsphere flow cytometry; active compounds read high. fluorescence intensity (no concentration beside the values). 360,000 compounds, 3.1% hits. AID 624483;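 active = at least 3 SD above the mean of all compounds, about 16000 in these data; inconclusive = too few beads counted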;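 note: 100 nL of 1 mM stock went into each well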
PrP UTR inh: inhibition of PrP 5' UTR reporter expression; cell-based PrP 5' UTR mRNA reporter, plate reader; inhibition, % (test concentration not listed); 340,000 compounds, 0.35% hits;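 active = every replicate at 50% or more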;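 note: 0 = median of the neutral control wells; tested in H4 reporter cells; numbers are from one replicate; inactives centre near -14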
RN4220 kill: S. aureus RN4220 growth inhibition. OD600, 16 h. inhibition, % (test concentration not listed). 330,000 compounds, 0.33% hits. AID 1259311;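 active = z-score of -3 or lower and OD600 up to 0.18 on both plates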;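 note: plate controls were untreated cells for no effect and reference antibiotic for full effect; stock transfer was 100 nL into about 80 µL; one replicate is shown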
Sa ugtP lethal: compounds lethal to S. aureus RN4220 ugtP deletion mutant; OD600 growth, 16 h; some inactives read as strong as hits; growth inhibition, % (no concentration beside the values); 330,000 compounds, 0.54% hits;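 active = z-score under -3 and OD600 up to 0.15 on both plates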;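 note: plate controls were untreated wells for no effect and antibiotic for full effect; wells of about 80 µL received 100 nL stock; the first replicate is given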
Mtb hypoxia inh: inhibitors of hypoxia-regulated fluorescent reporter in Mycobacterium tuberculosis. M. tuberculosis hypoxia-regulated fluorescent reporter, fluorescence. fluorescence inhibition, % (test concentration not listed). 300,000 compounds, 0.1% hits;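 active = 35 to 45% if threefold the growth effect, above 45% if 1.5-fold the growth effect; inactive = the rest, general growth blockers included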;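 note: wells of about 50 µL received 100 nL stock; 0% = vehicle wells and 100% = reference inhibitor wells; whole bacteria with a GFP reporter of the hypoxia response; strong numbers were not always called active; many hits fall short of the cut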
BJeLR viability: kills HRASV12-expressing BJeLR cells; inhibition, % (test concentration not listed); AID 1554; 300,000 compounds, 0.17% hits; BJeLR (HRASV12) viability, CellTiter-Glo ATP luminescence, 48 h; reference of the scale not given here;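 active = replicate mean above 50%; inconclusive = above 50% but judged a plate artefact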;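 note: 50 nL library stock added to about 25 µL; numbers are from one replicate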
Mtb hypoxia inh growth: further read-out of Mtb hypoxia inh, marked with its call; growth inhibition, %; measured here: M. tuberculosis growth (absorbance);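 0% = vehicle and 100% = reference antibiotic; read after six days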
* hit, by the source's call; ? = inconclusive; · = no result given; & = joins results of further samples.

SMILES	Autofluor counter	PrP UTR inh	RN4220 kill	Sa ugtP lethal	Mtb hypoxia inh	Mtb hypoxia inh growth	BJeLR viability
CCOC(=O)C1CCCN(CC(=O)Nc2ccc(C(=O)Nc3ccccc3OC)cc2)C1 (centres undefined)	?	-4	6.4	18	-5	4	·
CCCCn1c(N)c(N(CCOC)C(=O)CSCc2c(C)noc2C)c(=O)[nH]c1=O	5565	-8	0.4	-4	-8	3	-5
Cc1cccnc1NC(=O)CCNS(=O)(=O)c1ccc2c(c1)c(=O)n(C)c(=O)n2C	3091	-7	1.5	1	5	11	-4
CC(NC(=O)Nc1ccccc1)C(c1cccs1)N1CCN(c2ccccc2)CC1 (centres undefined)	5925	13	17	5	-8	5	·
CCC(=O)c1cc(-c2nc3ccccc3n2C)n(C)c1	4645	-22	6.2	1	11	8	0
Cc1ccccc1Nc1ncnc2c1cnn2-c1ccccc1	5425	-32	0.1	4	-1	-2	-14
COc1cccc(NC(=O)CN(C)S(=O)(=O)c2ccc3c(c2)CCC(=O)N3)c1	6584	-5	5.7	-4	2	7	4
Cc1cc(=O)oc2cc(OCC(=O)Nc3nnc(C4CC4)s3)ccc12	4293	-15	-3.0	-2	-6	-1	1
COc1ccc2c(c1)C1CC(C)(NC(=O)C1S(=O)(=O)c1ccc(F)cc1)O2 (centres undefined)	1948	-11	4.3	6	-4	0	0
CCOC(=O)N1CCN(C(=O)CN(c2cccc(C(F)(F)F)c2)S(C)(=O)=O)CC1	3278	-8	9.0	12	3	-1	0
O=C(NCCCn1ccnc1)Nc1ccc(Cl)cc1	24742*	-20	6.8	8	9	4	3
O=C(O)c1ccccc1OC(=O)C12CC3CC(CC(C3)C1)C2	3790	-19	3.4	1	3	-5	·
COCC(=O)NNS(=O)(=O)c1ccccc1[N+](=O)[O-]	1916	7	5.3	-4	0	11	8
COc1ccc(CCN2C(=O)CC(N3CCOCC3)C2=O)cc1 (centres undefined)	11462	3	6.3	-2	2	5	8
Cc1nnc(SCC(=O)Nc2cc(C(N)=O)cc(C(N)=O)c2)n1-c1ccccc1	2922	-11	4.4	9	2	3	-2
Cc1nn(C)c(C)c1NC(=O)CN1CCC(O)(c2ccc3c(c2)OCO3)CC1	10885	-1	2.5	0	4	6	12
CCOc1cccc(NC(=O)/C(C#N)=C/c2cccnc2)c1	3785	-11	3.9	10	5	7	2
COC(=O)CN(C)C(=O)c1cccc(OC2CCN(S(=O)(=O)N(C)C)CC2)c1	3409	-25	3.9	3	-5	13	-11
COc1ccc(C(=O)c2ccc(CC(=O)O)s2)cc1	2631	-8	5.2	7	-21	3	-6
O=C(COC(=O)C1CCN(S(=O)(=O)c2cccs2)CC1)Nc1ccc(F)cc1Cl	3879	-3	1.5	2	-1	0	·
O=C(Cc1cccc2ccccc12)N/N=C/c1ccc(Sc2nc3ccccc3s2)o1	4015	-20	·	·	·	·	-6
CCOc1ccc(C(=O)NCCCCNC(=O)c2ccc(OCC)cc2)cc1	2852	-21	6.1	6	-2	-5	-9
CCOC(=O)c1c(C)n(-c2ccc(C)cc2)c2ccc(OCC(O)CNCC3CCCO3)cc12 (centres undefined)	4774	-13	-7.7	-5	17	18	14
CCOC(=O)CSC1=NN2CCS(=O)(=O)N=C2S1	3215	50	2.7	7	-2	4	0
CC(NC(=O)c1ccccc1C(=O)O)c1ccc(-n2ccnc2)cc1 (centres undefined)	3968	-23	3.2	-1	0	2	-1

Among those listed so far, 12 have nitrogen in an aromatic ring:
SMILES	Autofluor counter	PrP UTR inh	RN4220 kill	Sa ugtP lethal	Mtb hypoxia inh	Mtb hypoxia inh growth	BJeLR viability
CCCCn1c(N)c(N(CCOC)C(=O)CSCc2c(C)noc2C)c(=O)[nH]c1=O	5565	-8	0.4	-4	-8	3	-5
Cc1cccnc1NC(=O)CCNS(=O)(=O)c1ccc2c(c1)c(=O)n(C)c(=O)n2C	3091	-7	1.5	1	5	11	-4
CCC(=O)c1cc(-c2nc3ccccc3n2C)n(C)c1	4645	-22	6.2	1	11	8	0
Cc1ccccc1Nc1ncnc2c1cnn2-c1ccccc1	5425	-32	0.1	4	-1	-2	-14
Cc1cc(=O)oc2cc(OCC(=O)Nc3nnc(C4CC4)s3)ccc12	4293	-15	-3.0	-2	-6	-1	1
O=C(NCCCn1ccnc1)Nc1ccc(Cl)cc1	24742*	-20	6.8	8	9	4	3
Cc1nnc(SCC(=O)Nc2cc(C(N)=O)cc(C(N)=O)c2)n1-c1ccccc1	2922	-11	4.4	9	2	3	-2
Cc1nn(C)c(C)c1NC(=O)CN1CCC(O)(c2ccc3c(c2)OCO3)CC1	10885	-1	2.5	0	4	6	12
CCOc1cccc(NC(=O)/C(C#N)=C/c2cccnc2)c1	3785	-11	3.9	10	5	7	2
O=C(Cc1cccc2ccccc12)N/N=C/c1ccc(Sc2nc3ccccc3s2)o1	4015	-20	·	·	·	·	-6
CCOC(=O)c1c(C)n(-c2ccc(C)cc2)c2ccc(OCC(O)CNCC3CCCO3)cc12 (centres undefined)	4774	-13	-7.7	-5	17	18	14
CC(NC(=O)c1ccccc1C(=O)O)c1ccc(-n2ccnc2)cc1 (centres undefined)	3968	-23	3.2	-1	0	2	-1

Continuation.
SMILES	Autofluor counter	PrP UTR inh	RN4220 kill	Sa ugtP lethal	Mtb hypoxia inh	Mtb hypoxia inh growth	BJeLR viability
Cc1nc2ccc(NC(=O)N3CCSCC3)cc2nc1C	2356	11	-16	-3	-1	-1	0
CCOC(=O)/C=C/C(=O)N1CCN(C(=O)/C=C/C(=O)OCC)CC1	3727	-18	4.8	4	14	0	-2
CC(C)(C)c1ccc(C(=O)N2CCCCCC2=O)cc1	2496	59*	0.3	4	·	·	0
CC(=O)Nc1ccc(S(=O)(=O)N(C)CC(=O)NC2CCCC(C)C2C)cc1 (centres undefined)	?	-17	-1.2	-2	-5	2	1
CC12CCC(=O)N1C(C(=O)Nc1ccc(S(=O)(=O)N3CCCCC3)cc1)CS2 (centres undefined)	5432	-7	3.3	0	-1	0	-7
COc1ccc(C/C(N)=N/OC(=O)C(c2ccccc2)c2ccccc2)cc1OC	8375	-6	3.5	5	15	6	1
Cn1cnnc1SCC(=O)Nc1ccc2nc(SCc3ccccc3F)sc2c1	10312	-157	8.2	-11	10	4	8
C=C(C)CNC(=O)CCc1nnc(Cc2cccc(C(F)(F)F)c2)o1	2440	-68	4.1	9	2	10	-5
Cc1cc(C)c(S(=O)(=O)Nc2ccc(-c3cn4ccccc4n3)cc2)c(C)c1	2962	-17	10	-11	·	·	-5
NNC(=O)c1oc2nc(-c3cccs3)cc(-c3ccco3)c2c1N	5066	-14	·	·	·	·	5
COc1cc(OC)c(N(C)S(=O)(=O)c2cccc(C(=O)OCC(=O)c3c[nH]c4ccccc34)c2)cc1Cl	11253	-17	-12	-22	2	2	-13
Cc1cc(C)nc(NC(N)=S)n1	4592	-1	1.9	-5	13	8	2
CCC(NC(=O)CN1CCN(C(=O)c2cccs2)CC1)c1ccc(C)cc1 (centres undefined)	4066	-4	-2.2	-2	-13	2	·
CCN(c1ccccc1)C1(O)C(=O)c2ccccc2C1=O	2155	-10	3.7	5	14	-1	-3
CC(=O)CCS(=O)(=O)c1ccc(NC(C)=O)cc1	7888	-2	6.8	2	8	13	3
O=C1NC(NS(=O)(=O)c2ccccc2)(C(F)(F)F)C(=O)N1c1cccc(Cl)c1 (centres undefined)	2891	-19	4.5	7	2	-13	6
CCCc1cc(=O)oc2cc(OCc3ccc(OC)cc3)c(Cl)cc12	2057	8	12	9	-1	-8	-2
C(=C\c1nnc2c3ccccc3ncn12)/c1ccccc1	2016	-130	5.0	-6	-1	-2	20
CCCCc1nnc(NC(=O)Cn2cnc3ccccc3c2=O)s1	4181	-3	2.0	6	-7	-1	-23
COc1ccc(N(C)S(=O)(=O)c2cccc(C(=O)Nc3nc(C)c(C(C)=O)s3)c2)cc1	?	·	3.4	4	2	-1	·
N#CC(=C=[N-])c1nc2ccccc2nc1-[n+]1cccc(NC(=O)c2ccccc2)c1	4119	-29	-3.2	-1	-10	-7	-2&-5
O=c1c2ccccc2nc2n1C(CSc1ccc(Br)cc1)CN2 (centres undefined)	2524	-12	3.9	-1	·	·	4
C/C(=N\N1CCCCC1c1cccnc1)c1c(O)n(C2CCCCC2)c(=S)[nH]c1=O (centres undefined)	2574	-23	·	·	·	·	-5
CN1C(=O)C2(C(C#N)=C(N)Oc3c2oc(CO)cc3=O)c2ccccc21 (centres undefined)	8053	-16	6.8	-5	6	3	2
CC(NC(=O)c1cnccn1)c1ccc(S(N)(=O)=O)cc1 (centres undefined)	4594	-38	4.3	-3	14	8	11
Other structures
SMILES	Autofluor counter	PrP UTR inh	RN4220 kill	Sa ugtP lethal	Mtb hypoxia inh	Mtb hypoxia inh growth	BJeLR viability
Cc1cc(NC(=O)CSc2ccc(-c3ccc(Br)cc3)nn2)no1	5276	-15	-0.5	3	8	1	-2
Cc1ccc(C(=O)NCC(=O)N(C)Cc2cccc(F)c2)s1	4078	-2	1.0	3	-1	1	·
CS(=O)(=O)N(CC(=O)Nc1ccccc1Sc1ccccc1)C1CCCCC1	22169*	-4	1.8	-25	-6	-8	-9
O=C(CN1C(=O)C2CC=C(Cl)CC2C1=O)NCc1ccccc1 (centres undefined)	2740	-15	2.1	0	·	·	-9
CCCNC(=O)Nc1nc2ccccc2s1	3525	-83	0.1	-1	6	0	1
Cc1cc(Nc2ccccc2)n(C(=O)c2ccc(N)cc2)n1	2201	68*	-0.8	4	·	·	-2
Clc1ccc2[nH]c(-c3ccccc3)cc2c1	2226	-108	-8.7	64	·	·	-2
O=C(Nc1nc(-c2ccccc2)cs1)C1CCCN(S(=O)(=O)c2ccccc2)C1 (centres undefined)	8836	-25	-6.2	34	1	8	-6
COc1ccc(C(=O)N/N=C2/SCC(=O)N2Cc2ccc3c(c2)OCO3)cc1OC	6701	-16	·	·	·	·	-6
Cc1onc(-c2ccccc2Cl)c1C(=O)NC(=S)Nc1ccc(C(C)C)cc1	5275	-18	-1.5	55	0	9	-10
CC(=O)NC1C(OCCOc2ccc(Cl)cc2C)OC(CO)C(O)C1O (centres undefined)	3577	2	2.3	7	2	8	-6
CCN(CC)C(=O)c1ccc(Nc2nnc(C)c3ccccc23)cc1	24503*	-2	1.5	0	5	3	4
C=CC(=O)N1C/C=C\C(c2ccc(OC)cc2)N(Cc2ccc(F)cc2)C(=O)C1 (centres undefined)	3893	3	·	·	·	·	-11
COc1ccc(CCNC(=O)CSc2nc3[nH]c(=O)cc(O)c3s2)cc1	4347	1	6.9	15	4	3	·
CCSC1=C(C#N)C(c2ccccc2C)CC(=O)N1 (centres undefined)	11243	-11	2.2	2	4	11	12
Cc1cccc(C)c1NC(=O)C(c1cccs1)N(Cc1ccco1)C(=O)Cn1nnc2ccccc21 (centres undefined)	2698	-2	-0.2	3	·	·	-12
O=C(C1=C[C@@H](c2ccc(C(F)(F)F)cc2)C[C@@H](OCc2ccc(CO)cc2)O1)N1CCN(Cc2ccccc2)CC1	3629	-6	·	·	·	·	2
Cc1ccc2oc(C(F)(F)C(F)F)cc(=O)c2c1	5211	-14	7.2	10	19	-2	6
O=S(=O)(Nc1ccc2nc(-c3ccco3)[nH]c2c1)c1ccccc1	4183	-75	6.7	1	9	14	3
Cc1csc(NC(=O)CSc2ncnc3c2cnn3-c2ccccc2Cl)n1	3240	-7	·	·	·	·	4
Cc1onc(-c2c(Cl)cccc2Cl)c1NC(=O)NN(C)C	4602	-16	-0.4	-1	-4	8	-6
CC(C)C(=O)N(Cc1cc2ccccc2[nH]c1=O)C(C)(C)C	4805	-9	3.1	1	20	10	5
CC[C@]12c3[nH]c4cc(CCC(=O)N(C)C)ccc4c3CCN1C(=O)[C@@H](CC(=O)NCCN1CCOCC1)C[C@@H]2C(=O)N1CCN(C(=O)C2CC2)CC1	3991	-11	-1.2	2	-3	5	·
O=C(Nc1ccccc1)C(c1ccccc1)c1ccccc1	4278	-29	1.3	29	6	-6	6
COc1cccc(C(=O)N2CCN=C2SC)c1	4243	4	2.6	2	0	8	-4

Assay outcomes deposited in PubChem BioAssay by several laboratories.
